Mtb growth: Mycobacterium tuberculosis H37Rv growth inhibition, cell based, confirmatory dose response (AID 1949); most inactive calls were filed without a number and no value below 0 was filed; one-dose inhibition, % at 10 µg/mL; IC50 in µg/mL for titrated hits; hit rate 1.6% among 100,000; M. tuberculosis H37Rv growth inhibition;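 active = confirmed in a dose series; inconclusive = about 50% or more but not retested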;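 also: bacteria grown 7 days with compound before Alamar blue readout; 0% = untreated bacteria and 100% = reference antibiotic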
* hit, by the source's call; i = inactive; ? = inconclusive. Some of the compounds tested; the hit share may differ from the screen's.

SMILES | Mtb growth
S=C(NCc1ccccc1)Nc1ccc(Br)cc1 | ?
Cc1ccc(S(=O)(=O)NCc2ccccc2)cc1 | 0%
COC(=O)c1cc(-c2ccc(OC)cc2)n[nH]1 | i
Fc1ccccc1Nc1nc(-c2ccncc2)cs1 | i
CCOc1ccc(NC(=S)N2C(C)CCCC2C)cc1 (stereo not drawn) | ?
COc1ccc(CN2C(=O)c3oc4cc(C)c(C)cc4c(=O)c3C2c2ccc(SC)cc2)cc1 (stereo not drawn) | 1%
COc1cccc(N2CC(C(=O)Nc3c(C)cccc3C)CC2=O)c1 (stereo not drawn) | i
O=C(O)c1ccc(OCc2ccc(C(=O)O)o2)cc1 | i
COc1ccc(Br)cc1C(=O)Nc1nc2ccc(Cl)cc2s1 | i
COc1ccc(COc2ccc3c4c(c(=O)oc3c2C)CCC4)cc1 | i
CC1CCCC(N2CCN(Cc3ccncc3)CC2)C1 (stereo not drawn) | i
CCn1c(SCC(=O)Nc2cccc3ccccc23)nnc1C(NC(=O)c1ccc(C)cc1)C(C)C (stereo not drawn) | i
CC(c1ccccc1)C1CC(=O)N(c2ccc3ccccc3n2)C1=O (stereo not drawn) | i
O=S(=O)(Nc1ncccn1)c1ccc(NC(=S)N2CCC(Cc3ccccc3)CC2)cc1 | i
Cc1ccc(S(=O)(=O)Nc2ccc3nc(-c4ccco4)[nH]c3c2)cc1 | i
CCc1[nH]nc2c1C(c1ccc(Cl)s1)C(C#N)=C(N)O2 (stereo not drawn) | i
CN(Cc1ccccc1)S(=O)(=O)c1ccc(NC(=O)c2ccccc2F)cc1 | i
Cc1ccc(S(=O)(=O)Nc2ccc(S(=O)(=O)Nc3cccc(C(F)(F)F)c3)cc2)cc1 | i
Cc1ccc(OCC(=O)Nc2cc(Cl)ccc2C(=O)O)c(C)c1 | i
O=C(NCc1ccccc1)c1ccc(NC(=O)C2COc3ccccc3O2)cc1 (stereo not drawn) | 39%
CCOc1cc(CN2CCN(C(=O)c3ccc([N+](=O)[O-])cc3)CC2)ccc1OC | i
COc1cc([N+](=O)[O-])ccc1NC(=S)Nc1cccc(C(=O)NCc2ccccc2)c1 | i
CNS(=O)(=O)c1cc(-c2nnc(Nc3ccc(OC)cc3)c3ccccc23)ccc1C | i
Cn1c(SCc2ccc([N+](=O)[O-])cc2)nnc1-c1ccc(Cl)cc1 | i
Cn1c(=O)oc2cc(S(=O)(=O)Nc3ccccc3)ccc21 | i

The last 4 records of the section before open the next one:
SMILES | Mtb growth
COc1cc([N+](=O)[O-])ccc1NC(=S)Nc1cccc(C(=O)NCc2ccccc2)c1 | i
CNS(=O)(=O)c1cc(-c2nnc(Nc3ccc(OC)cc3)c3ccccc23)ccc1C | i
Cn1c(SCc2ccc([N+](=O)[O-])cc2)nnc1-c1ccc(Cl)cc1 | i
Cn1c(=O)oc2cc(S(=O)(=O)Nc3ccccc3)ccc21 | i
O=C1CC(c2ccc(Cl)c(Cl)c2)c2cc3c(cc2N1)OCCO3 (stereo not drawn) | 23%
Cc1nc(SCC(=O)Nc2nnc(SCc3ccccc3)s2)n[nH]1 | i
COc1ccc(C2(CNC(=O)c3cc4ccccc4o3)CCOCC2)cc1OC | i
O=C(NC(=S)Nc1ccc(I)cn1)c1ccc2c(c1)OCO2 | i
Nc1[nH]nc2ncc3cc4ccccc4nc3c12 | i
O=C(Nc1cccc(Cl)c1)c1cc(S(=O)(=O)Nc2cccc(Cl)c2)cs1 | 37%
Cc1cc2c(=O)n(Cc3ccco3)c(SCC(=O)Nc3nccs3)nc2s1 | i
CCc1cc2c(=O)c(-c3nc4ccccc4n3C)c(C(C)C)oc2c(CN2CCN(C)CC2)c1O | i
COc1ccc(CCNC(=O)CCCN2C(=O)c3cccc4cccc(c34)C2=O)cc1OC | i
CCOC(=O)N1CCN(C(=O)c2cc(OCC)c(OCC)c(OCC)c2)CC1 | i
CCOc1ccc(NC(=S)N2CCC(C(N)=O)(N3CCCCC3)CC2)cc1 | i
COc1ccc(Cl)cc1-n1c(Cn2ncc3ccccc3c2=O)n[nH]c1=S | i
CCOc1ccc(CCn2c(CN3C(=O)c4ccccc4C3=O)nc3ccccc3c2=O)cc1OCC | i
NS(=O)(=O)c1ccc(Nc2nnc(-c3ccccc3)c3ccccc23)cc1 | i
COc1cc(SC)ccc1C(=O)Nc1nnc(CC(C)C)s1 | i
CCCCNC(=S)NC(C)(C)CO | i
CN(CC(=O)NC1CC1)S(=O)(=O)c1ccc2ccccc2c1 | i
CC(C)CC(=O)Nc1ccc(N2CCC(C)CC2)cc1 | i
O=C(NC1CCCCC1)C(=O)N1CCCC1 | i
C=CCNc1nc(N)c(C(=O)Nc2cc(C)on2)s1 | i
COc1ccc(S(=O)(=O)N(Cc2ccccc2)c2ccccc2C(=O)Nc2ccc(CC#N)cc2)cc1 | i
COc1ccc(Cl)cc1NC(=O)NCc1cccs1 | 7%
CCn1c(CSCc2ccc(C)cc2)n[nH]c1=S | i
Cc1ccc(S(=O)(=O)O)c(C)c1N1CCCC1=O | i
CCc1ccc(C(=O)NC(=S)Nc2ccc(OC)cc2OC)cc1 | 4%

Structures above with fluorine (3):
SMILES | Mtb growth
Fc1ccccc1Nc1nc(-c2ccncc2)cs1 | i
CN(Cc1ccccc1)S(=O)(=O)c1ccc(NC(=O)c2ccccc2F)cc1 | i
Cc1ccc(S(=O)(=O)Nc2ccc(S(=O)(=O)Nc3cccc(C(F)(F)F)c3)cc2)cc1 | i

Additional results:
SMILES | Mtb growth
Cc1cc(OCC(=O)NCc2cccnc2)c(C)cc1Br | 2%
Cc1ccc(C(=O)Nc2nnc(CCc3ccccc3)s2)cc1[N+](=O)[O-] | i
O=C(Nc1nc(-c2ccc(Br)cc2)cs1)c1ccc2c(c1)OCO2 | i
CCOC(=O)c1c(-c2cccs2)csc1NC(=O)c1cc2ccccc2oc1=O | 4.8µg/mL*
Cc1cc(=O)oc2cc(NC(=S)N3CCN(c4ccc(Cl)c(Cl)c4)CC3)ccc12 | i
COc1cc(C2CC(=O)C3=C(C2)Nc2ccccc2NC3c2ccncc2)cc(OC)c1OC (stereo not drawn) | i
COc1ccc(C(=O)Nc2nc(-c3ccc(C)cc3)cs2)cc1OC | 17%
O=C1C2C(C(=O)N1Cc1ccco1)C1C=CC2C12CC2 (stereo not drawn) | 2%
O=C(CN(c1cccc(Br)c1)S(=O)(=O)c1ccccc1)Nc1cccc([N+](=O)[O-])c1 | i
O=C(NC1CCCC1)c1ccc(COc2ccccc2Br)o1 | 1%
O=C(Nc1ccc2c(c1)OCO2)c1ccc2c(c1)OCO2 | i
Cc1cccc(CSc2nc(C)cc(C)c2C#N)c1 | 22%
C=CCn1c(SCC(=O)Nc2ccc(S(N)(=O)=O)cc2)nnc1-c1ccncc1 | i
C=CCNS(=O)(=O)c1ccc(OC)c(C)c1 | i
O=C(CSc1ncnc2sc(-c3ccccc3)cc12)Nc1ccc(F)c(Cl)c1 | i
CS(=O)(=O)N(CC(=O)N1CCCCCC1)c1ccc(I)cc1 | i
O=C(CC(c1ccccc1)c1ccco1)N1CCCCC1 (stereo not drawn) | i
CCCS(=O)(=O)c1ccc(COC(=O)CCC(=O)Nc2ccccc2C(F)(F)F)cc1 | i
N#C/C(=C\c1ccccc1Br)S(=O)(=O)c1ccccc1 | i
COc1ccc(-c2n[nH]c(=S)n2-c2ccc(Br)cc2)cc1 | i
O=C(CC12CC3CC(CC(C3)C1)C2)NCCNc1ccc([N+](=O)[O-])cc1 | i
c1ccc(-c2nnc(CNCc3cccs3)o2)cc1 | i
O=S(=O)(Nc1ccc(O)c2ccccc12)c1cccc2cccnc12 | 6%
COC(=O)c1cc(Br)ccc1NC(=O)COc1ccccc1C | 1%
COc1ccc(/C(N)=N/OC(=O)C(F)(F)F)cc1 | 1%

(listing goes on)
SMILES | Mtb growth
Cc1ccc(OCC(=O)Nc2ccc(NC(=O)C(C)C)cc2)c(C)c1 | 2%
CCN(CC)S(=O)(=O)c1ccc(C(=O)N2CCN(C3=NS(=O)(=O)c4ccccc43)CC2)cc1 | i
CC(C)Oc1ccc(C(=O)Nc2cc(C(F)(F)F)ccc2N2CCOCC2)cc1 | i
CCn1c(SCC(=O)Nc2nc(C)cs2)nnc1-c1ccco1 | i
CC(=O)Nc1ccccc1C(=O)C(=O)Nc1ccc(F)cc1 | i
S=C(NCc1ccccc1Cl)Nc1ccccc1Cl | i
Cc1ccc(-c2nnc(SCC(=O)Nc3ncc(C)s3)n2C)cc1 | i
Oc1ccc(-c2csc(NCc3ccco3)n2)c(O)c1 | i
CCOC(=O)c1cnn2c1NC(c1cccc(OC)c1)CC2C(F)(F)F (stereo not drawn) | i
CC1CN=C(N(Cc2cccnc2)C(=O)Nc2cccc(Cl)c2)S1 (stereo not drawn) | i
COC(=O)C1=CN(CCc2ccccc2)C=C(C(=O)OC)C1c1ccc(OC)c(OC)c1 | i
COc1ccccc1C(=O)NCCN1CCCC1 | i
Clc1ccc(OCc2nc(-c3ccccc3)no2)c(Br)c1 | 2%
N#Cc1ccc(C(=O)Nc2ccc(N3CCOCC3)cc2)c(F)c1 | i
CC(C)N(C(=O)c1ccc(C(=O)Nc2ccc([N+](=O)[O-])cc2)cc1)C(C)C | i
COC(=O)Cc1c(C)c2ccc(OCc3cc(OC)c(OC)c(OC)c3)c(C)c2oc1=O | i
CCc1ccc(OCC(=O)Oc2ccc(Br)cc2Cl)cc1 | i
O=S(=O)(NCCN1CCOCC1)c1cc(Cl)ccc1Cl | i
COc1ccc(CC(=O)NCC2(c3ccc(OC)c(OC)c3)CCOCC2)cc1 | i
O=C(Nc1ccccc1C(=O)Nc1ccc(F)cc1)c1ccc(Cl)cc1Cl | 1%
Cc1cccc2c1N(C)C(=O)C2(O)CC(=O)c1ccco1 (stereo not drawn) | i
CC(C)(C)c1ccc(C(=O)CC2(O)C(=O)Nc3ccc(Br)cc32)cc1 (stereo not drawn) | i
CC(NC(=O)c1ccc(-c2nn(C)c(=O)c3ccccc23)cc1)c1ccccc1 (stereo not drawn) | i
CC(=O)Nc1nc2ccc(S(=O)(=O)N3CCOCC3)cc2s1 | i
Cc1ccc(N(CC(=O)N2CCCC2)S(=O)(=O)c2ccc(Cl)cc2)cc1C | i

Next part:
SMILES | Mtb growth
O=S(=O)(c1ccc(Cl)cc1)N1CCN(S(=O)(=O)N2CCCCCC2)CC1 | 1%
N=C1C(c2nc3ccccc3s2)=C(O)CN1c1ccccc1Br | 0%
Cc1ccc(C(=O)Nc2ccc(N3CCN(C(=O)C(C)C)CC3)c(Cl)c2)c(C)c1 | i
COc1ccc2nc(Nc3nc(C)cc(C(F)(F)F)n3)nc(C)c2c1 | 0%
COc1ccccc1C(=O)N1CCN(C(=O)c2cccc(F)c2)CC1 | 5%
CCc1cccc(CC)c1NC(=O)CCCN1C(=O)c2ccccc2C1=O | i
O=C(NCc1ccncc1)c1ccc(CN2CCc3ccccc3C2)cc1 | i
Cc1ccc(O)c(C(CC(=O)NCc2cccnc2)c2ccccc2)c1 (stereo not drawn) | i
CN(C(=O)CSc1nc2cc(Cl)ccc2s1)c1ccccc1 | 3%
CCOc1ccc(C(C)NC(=O)Cc2ccccc2)cc1 (stereo not drawn) | i
COC(=O)c1cccc(NS(=O)(=O)c2cc(Cl)ccc2Cl)c1C | i
Cc1cc(CSc2ccccc2)ccc1NC(=O)CN(c1ccc2c(c1)OCCO2)S(C)(=O)=O | i
CC(C)C(=O)Nc1cccc(C(=O)Nc2ccc(F)cc2F)c1 | i
O=C(O)c1cccc(NCc2ccc(F)cc2)c1 | i
CCCCOc1ccc(C2NC(=S)NC(C)=C2C(=O)Nc2ccc(C)cc2)cc1OCC (stereo not drawn) | i
Cn1c(CNC(=O)c2ccc(Cl)cc2)nnc1SCC(=O)Nc1ccc(Cl)cc1 | i
Cc1ccc(CC(=O)Nc2cccc(Br)c2)cc1 | 5%
O=C(c1cccs1)N1CCN(Cc2ccccc2Cl)CC1 | 1%
CCOC(=O)CC1C(=O)NCCN1Cc1cccs1 (stereo not drawn) | i
CC(=O)Nc1ccc(S(=O)(=O)NCc2ccc(C)cc2)cc1 | 0%
CS(=O)(=O)Nc1ccc(Br)cc1C(=O)c1ccccc1 | 1%
CCCC(=O)N(c1nc(-c2ccc(Cl)cc2)c(CC)s1)c1ccccc1OC | i
CC(=O)c1cccc(NC(=O)CSc2ncnc3sc(C)c(C)c23)c1 | i
CCC(CC)C(=O)Nc1ccc(NC(=O)c2cccs2)c(C)c1 | i
COc1ccc(OC)c(NC(=S)NC(=O)c2ccccc2[N+](=O)[O-])c1 | 4%

Further compounds
SMILES | Mtb growth
COC(=O)c1ccccc1NC(=O)CSc1nnc(NC(=O)c2ccccc2Cl)s1 | i
O=C(NCc1ccco1)c1cccc2c(Br)cccc12 | 11%
CCCn1cc(C2CC(=O)N(c3ccc(OC)cc3)C2=O)c2ccccc21 (stereo not drawn) | i
Cc1ccc(NC(=O)c2cncc(Br)c2)c(O)c1 | i
CCOC(=O)c1cc(Cc2ccccc2)sc1NC(=S)N1CCC2(CC1)OCCO2 | i
COc1ccc(N(CC(=O)Nc2ccc(F)cc2F)S(=O)(=O)c2ccccc2)cc1Cl | i
CC(=O)Nc1ccc(C(F)(F)F)cc1[N+](=O)[O-] | i
CC(=Nc1ccc([N+](=O)[O-])cc1)N(C)C | i
S=C(Nc1ccc(Cl)cc1)Nc1nc(-c2ccccc2)c(-c2ccccc2)o1 | 1%
Cc1ccc2c(Cl)c(C(=O)Nc3ccc4c(c3)OCO4)sc2c1 | i
CC(=O)Nc1cc2c(cc1C(=O)c1ccc(C)cc1)OCCO2 | 1%
CC(C)(c1ccccc1)c1ccc(OCCn2cnc3ccccc3c2=O)cc1 | i
CSc1cccc(NC(=O)CSc2nnc(Cc3ccccc3)o2)c1 | i
COc1cccc(NC(=S)Nc2ccc3nc(-c4ccccn4)c(-c4ccccn4)nc3c2)c1 | i
CCOc1ccc(-c2n[nH]c(C(=O)N/N=C/c3cccnc3)c2C)cc1 | 2%
Cc1ccccc1SCC(=O)O | i

Already shown: entries from further up.
SMILES | Mtb growth
COC(=O)c1ccccc1NC(=O)CSc1nnc(NC(=O)c2ccccc2Cl)s1 | i
O=C(NCc1ccco1)c1cccc2c(Br)cccc12 | 11%

Screening results from PubChem BioAssay.
